Bioassay records: PubChem BioAssay, National Center for Advancing Translational Sciences (NCATS)
Sfp PPTase inh: Sfp phosphopantetheinyl transferase inhibition; Q9F4F7; Biochemical Sfp PPTase activity, qHTS; Potency, µM, for inactives: max response, negative = inhibition, usual class: inhibitors; actives 3.5% (n = 310,000); active means well fitted inhibition curve with a large enough effect; inconclusive means small, poorly fitted or top-dose-only effect, or another doubt; inactive means no such curve, though single readings can be large or run the other way;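 further: the enzyme is Sfp with the accession as filed and its product quenches rhodamine fluorescence; potency means the concentration at half of the fitted maximal effect; 0% = enzyme reaction without inhibitor and -100% = no enzyme wells; top concentration of the series not given in the record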
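Buffer: 50 mM Hepes-Na pH 7.6, 10 mM MgCl2, 0.01% Nonidet P-40, 0.01% BSA. Enzyme 15 nM, pre-exposed to compound 15 min; substrates then added and fluorescence change tracked over 30 min.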
D2 agonist: activates the human D2 dopamine receptor. DiscoveRx PathHunter D2 beta-arrestin, luminescence, 90 min; 100% = 57 uM dopamine signal. actives 0.084% (n = 360,000). AID 624465. activation, % (concentration not given with the values). P14416; in the data active = activation above about 40%; inconclusive = about 15% to 40%; inactive = below about 15%; further: compound concentration not given in the record; the text of the record calls up to 30% inactive
Target sequence (P14416 whole entry, looked up): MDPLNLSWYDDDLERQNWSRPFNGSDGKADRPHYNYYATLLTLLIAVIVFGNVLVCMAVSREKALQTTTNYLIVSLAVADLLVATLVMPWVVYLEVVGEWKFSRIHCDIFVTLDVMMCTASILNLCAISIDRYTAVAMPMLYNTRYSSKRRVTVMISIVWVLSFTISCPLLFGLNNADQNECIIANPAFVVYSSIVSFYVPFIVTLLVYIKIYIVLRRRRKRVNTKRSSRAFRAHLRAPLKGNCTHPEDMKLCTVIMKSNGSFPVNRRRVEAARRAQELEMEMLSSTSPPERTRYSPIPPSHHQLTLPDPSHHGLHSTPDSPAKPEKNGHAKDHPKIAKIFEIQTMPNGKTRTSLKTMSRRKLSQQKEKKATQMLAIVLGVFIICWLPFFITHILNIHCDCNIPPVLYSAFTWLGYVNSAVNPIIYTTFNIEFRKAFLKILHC
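DiscoveRx PathHunter D2 beta-arrestin cells (2,100/well) attached overnight, then compound-stimulated 90 min at 37 C in HBSS/10 mM HEPES/0.1% Tween-20 buffer; beta-galactosidase complementation read by luminescence after 1 h at ambient temperature. Dopamine 57 uM final (EC100) as control.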
PINK1 modulator: PINK1 expression modulation | Potency, µM (titrated, usually from 76.6 µM), for inactives: at the top dose activation (PINK1 increase), most hits filed as activators | PINK1 immunofluorescence, high-content cytometry, 24 h | actives 0.2% (n = 410,000); active = well fitted activation curve with a large enough effect; inconclusive = small, poorly fitted or top-dose-only effect; inactive = flat fitted curve, though single readings scatter; cell line not stated here;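 further: potency means the concentration at half of the fitted maximal effect; % of control where 0% means no effect; nearly all actives have a fitted effect of over 65% in size; a mitochondrial uncoupler was the plate control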
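Stable cell line, 250 cells/well, 12 h attachment; compounds pinned at 5 concentrations, 24 h; CCCP control. Fixed with nuclear dye, primary antibodies 12 h at 10 degrees C, secondary plus cell stain; laser-scanning cytometer read.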
Menin MLL FP FL: menin-MLL binding inhibition, fluorescein peptide; Fluorescence polarization, fluorescein-MLL peptide displacement from menin; FP activity change, % at 61.4 µM; 290,000 tested, under 10 active; AID 1766; inconclusive = falling polarisation curve, or a change in total fluorescence; inactive = total fluorescence flat and polarisation flat or rising; no compound was filed as active; the % refers to the polarisation; negative = inhibition;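 further: % of control where 0% means no effect; inhibitors lower the polarisation; unlabelled MLL peptide was the positive control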
ClpP mod: qHTS Assay for Activators of ClpP; ATP-dependent Clp protease proteolytic subunit (Bacillus subtilis (strain 168)), P80244; purified B. subtilis ClpP, FRET peptide cleavage, 20 min; Potency, µM (highest dose often 57.5 µM), without a hit: top-dose activity change, negative = active; actives 1.9% (n = 340,000); AID 651965, 2013; active = well fitted falling curve with a large enough effect; inconclusive = small, poorly fitted or top-dose-only effect; inactive = no such curve, though single readings can be large or run the other way; further: potency means the concentration at half of the fitted maximal effect; the source files actives as falling curves though it sought activators and does not explain the sign; nearly all actives have a fitted effect of over 65% in size; many hits overshoot -100%
Target sequence (P80244 whole entry, looked up): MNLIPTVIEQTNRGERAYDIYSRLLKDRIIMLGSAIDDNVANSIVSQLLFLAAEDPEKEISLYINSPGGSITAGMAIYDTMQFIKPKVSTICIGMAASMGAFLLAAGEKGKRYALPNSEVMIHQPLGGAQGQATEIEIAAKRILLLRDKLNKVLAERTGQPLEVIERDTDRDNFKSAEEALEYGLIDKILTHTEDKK
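ClpP 10 microg/mL final, pH 8 Tris/KCl buffer with BSA, glycerol, Tween-20; compound pinned in; FRET-FV substrate; RT 20 min; Ex320/Em430; ΔFRET vs ADEP 5.8 microM, DMSO, no enzyme.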
gsp ag: gsp mutant agonism. AID 624287. actives 0.13% (n = 340,000). gsp mutant cells, cAMP HTRF, 30 min; control for the full effect not named in the record. Potency, µM (top dose mostly 76.9 µM), for inactives: top-dose activation (cAMP increase), hits mostly activators; active = well fitted activation curve with a large enough effect; inconclusive = small, poorly fitted or top-dose-only effect, or another doubt; inactive = no such curve, though single readings can be large or run the other way; cell line not stated here;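 further: phosphodiesterase inhibitor Ro 20-1724 added with compounds to block cAMP breakdown; potency means the concentration at half of the fitted maximal effect; nearly all actives have a fitted effect of over 60% in size; about a fifth of the inactives were tested at one dose only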
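Cells stably selected in G418 were plated at 2000/well, grown 16-24 hr, then given compounds in DMSO with the PDE inhibitor […] (300 uM solution added) for 30 min at 37C; cAMP was read by HTRF.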
gsp antagonist: antagonists of gsp mutant (McCune-Albright syndrome); Potency, µM (top dose mostly 76.9 µM), without a hit: top-dose activity change, negative = inhibition, hits mostly inhibitors; actives 0.4% (n = 340,000); gsp-mutant cells, cAMP HTRF, 30 min; control for the full effect not named in the record; active = falling curve of any shape with a large fitted effect; inconclusive = falling curve, mostly with a smaller effect; inactive = flat or rising curve; cell line not stated here;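 further: intracellular cAMP measured with PDE inhibitor Ro 20-1724 present during compound exposure; potency means the concentration at half of the fitted maximal effect; on the % scale 0 is the no-effect control and ±100 the full control effect; nearly all actives have a fitted effect of over 65% in size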
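Measurement of cellular cAMP by homogeneous time-resolved fluorescence following a 30 min compound exposure at 37C. The PDE inhibitor […] was present throughout; the assay buffer was DPBS with 0.05% BSA and 0.005% Tween 20.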
An asterisk follows results filed as active; [ ] = dose if it differs, or a comment.

How did COc1ccc(S(=O)(=O)Nc2ccc(S(=O)(=O)N3CCCCC3)cc2)cc1 do in these assays?
Sfp PPTase inh: -2.2%; D2 agonist: -2.0; PINK1 modulator: -1.8%; Menin MLL FP FL: 0.7; ClpP mod: -1.2%; gsp ag: 23.2%; gsp antagonist: -8.3%

What do the screens show for `Cc1onc(-c2c(F)cccc2Cl)c1C(=O)NCc1ccco1`?
Sfp PPTase inh: 14.6%; D2 agonist: 0.2; PINK1 modulator: 3.0%; Menin MLL FP FL: 3.9; ClpP mod: -2.1%; gsp ag: 4.4%; gsp antagonist: 0.7%

Results for CNC(=O)/C(=C\C=C\c1ccccc1)NC(=O)c1ccc([N+](=O)[O-])cc1 ?
Sfp PPTase inh: -10.9%; D2 agonist: 0.0; PINK1 modulator: inconclusive; Menin MLL FP FL: inconclusive; ClpP mod: -4.8%; gsp ag: 5.2%; gsp antagonist: -6.3%

Results for CC1CCCN(c2nc3c(c(=O)[nH]c(=O)n3C)n2Cc2ccccc2Cl)C1 (centres undefined) ?
Sfp PPTase inh: inconclusive; D2 agonist: 1.4; PINK1 modulator: 0.2%; Menin MLL FP FL: -1.3; ClpP mod: -0.3%; gsp ag: -2.8%; gsp antagonist: -12.2%

How did C=CC1CN(C(=O)OCC(Cl)(Cl)Cl)C2CC3c4ccc(OC)cc4NC3C3CC1C2CO3 (centres undefined) do in these assays?
D2 agonist: -5.6; PINK1 modulator: 1.4%; ClpP mod: -0.5%; gsp antagonist: -13.9%

Results for CCOc1ccc(CN2CCNC(=O)C2CC(=O)NC2CCOCC2)cc1 (centres undefined) ?
Sfp PPTase inh: -2.7%; D2 agonist: -3.9; PINK1 modulator: -2.8%; Menin MLL FP FL: -4.3; ClpP mod: -6.8%; gsp ag: -25.7%; gsp antagonist: -6.7%

What do the screens show for `Cc1ccc(NC(=O)c2ccc3ccccc3n2)cc1S(=O)(=O)N(C)C`?
Sfp PPTase inh: 12.4%; D2 agonist: -2.7; PINK1 modulator: 6.6%; Menin MLL FP FL: 2.3; ClpP mod: -8.0%; gsp ag: -5.0%[15.4 µM]; gsp antagonist: 6.9%

Results for CN(C)CCCN1C(=O)C(=O)/C(=C(/O)c2ccncc2)C1c1ccccc1 (centres undefined) ?
Sfp PPTase inh: 11.8%; D2 agonist: -3.4; PINK1 modulator: 0.9%; Menin MLL FP FL: -0.8; ClpP mod: inconclusive; gsp ag: 1.7%; gsp antagonist: 2.4%

What do the screens show for `CSc1ccccc1C(=O)OCC(=O)NCCN1C(=O)CSC1=O`?
D2 agonist: -2.2; PINK1 modulator: -1.1%; ClpP mod: -1.7%; gsp ag: -42.7%[inhibitor]; gsp antagonist: 6.0%

Results for O=C(Nc1cccc(-c2nc3ncccc3o2)c1)c1ccc2c(c1)OCO2 ?
D2 agonist: -1.6; PINK1 modulator: 2.7%; gsp ag: 10.1%[15.4 µM]; gsp antagonist: -8.8%

What do the screens show for `O=C(COC(=O)CCSc1ccc(Cl)cc1)NCc1ccccc1Cl`?
Sfp PPTase inh: -12.3%; D2 agonist: 0.8; PINK1 modulator: 0.9%; Menin MLL FP FL: 4.2; ClpP mod: -9.0%; gsp ag: 22.0%; gsp antagonist: 4.1%

How did COc1ccc(NCc2nnc(SCC(=O)N3CCCc4ccccc43)o2)cc1 do in these assays?
Sfp PPTase inh: -1.0%; D2 agonist: 0.9; PINK1 modulator: -1.5%; Menin MLL FP FL: -1.3; ClpP mod: -0.6%; gsp ag: -5.2%; gsp antagonist: -4.6%

Results for CC(=O)NC(CC(=O)O)C(=O)NC(CCC(=O)O)C(=O)O (centres undefined) ?
Sfp PPTase inh: 11.6%; PINK1 modulator: 0.1%; Menin MLL FP FL: 4.7

How did COc1ccc(CNc2ccnc(-c3cccc(C#N)c3)n2)c(OC)c1 do in these assays?
Sfp PPTase inh: -23.8%; PINK1 modulator: -0.3%; Menin MLL FP FL: -1.5

What do the screens show for `Cc1ccccc1NC(=O)c1c(C)[nH]c(=S)c(C#N)c1-c1ccc(Cl)cc1`?
Sfp PPTase inh: -10.4%; D2 agonist: 1.3; PINK1 modulator: -1.4%; Menin MLL FP FL: 6.4; gsp ag: -0.7%[15.4 µM]; gsp antagonist: 0.7%

What do the screens show for `CCc1ccccc1NC(=O)CSc1nc2ccccc2n1CC(=O)N(C)C`?
Sfp PPTase inh: 3.2%; D2 agonist: -2.2; PINK1 modulator: inconclusive; Menin MLL FP FL: 4.9; ClpP mod: -4.1%; gsp ag: -1.6%; gsp antagonist: 2.4%

What do the screens show for `O=C(OCC(=O)N1CCc2ccccc21)c1ccc(Br)o1`?
D2 agonist: 0.9; PINK1 modulator: 4.7%; ClpP mod: 1.9%; gsp ag: -39.9%[inhibitor]; gsp antagonist: -1.6%

Results for O=C(O)C1CCC(=O)N1Cc1ccccc1Cl (centres undefined) ?
Sfp PPTase inh: 6.7%; D2 agonist: -3.9; PINK1 modulator: 0.2%; Menin MLL FP FL: 6.9; ClpP mod: 1.6%; gsp ag: -6.3%; gsp antagonist: 1.6%[15.4 µM]

Results for Cc1c(-c2ccccc2)[n+](=O)c(-c2ccc(Br)cc2)c(C)n1[O-] ?
Sfp PPTase inh: 4.4%; D2 agonist: -3.5; PINK1 modulator: -0.2%; Menin MLL FP FL: -2.1; ClpP mod: -0.8%; gsp ag: 13.1%; gsp antagonist: 3.6%

What do the screens show for `Cc1cc(C(=O)COC(=O)C2COc3ccccc3O2)c(C)n1CC1CCCO1` (centres undefined)?
Sfp PPTase inh: -2.0%; D2 agonist: -2.7; PINK1 modulator: -1.3%; Menin MLL FP FL: 4.9; ClpP mod: 2.7%; gsp ag: inconclusive; gsp antagonist: -17.4%

Results for C=CCNCC(O)COc1ccc(C(C)=O)cc1OC (centres undefined) ?
Sfp PPTase inh: inconclusive; D2 agonist: -2.1; PINK1 modulator: -2.2%; Menin MLL FP FL: -0.4; gsp ag: 1.9%[15.4 µM]; gsp antagonist: 6.0%

Results for COc1cc(C(=O)N2CCN(Cc3ccccc3C(F)(F)F)CC2)cc(OC)c1OC ?
Sfp PPTase inh: inconclusive; D2 agonist: -2.4; PINK1 modulator: 0.8%; Menin MLL FP FL: -0.3; ClpP mod: 0.6%; gsp ag: -40.4%[inhibitor]; gsp antagonist: -15.0%

What do the screens show for `Cc1ccsc1C(=O)OCC(=O)Nc1sccc1C(N)=O`?
Sfp PPTase inh: 6.5%; D2 agonist: -2.5; PINK1 modulator: 0.4%; Menin MLL FP FL: 1.1; ClpP mod: -1.4%; gsp ag: -55.5%[inhibitor]; gsp antagonist: 10.5%

Results for CC(C)CCNC(=O)NC(=O)COc1ccccc1C#N ?
Sfp PPTase inh: 6.0%; D2 agonist: -3.2; PINK1 modulator: 0.7%; Menin MLL FP FL: 10.3; ClpP mod: 0.6%; gsp ag: 12.3%; gsp antagonist: 5.3%

How did CCCCN(C=O)c1c(CC)nc2ccc(C(=O)NCc3cccs3)cn12 do in these assays?
D2 agonist: 1.6; PINK1 modulator: -0.8%; ClpP mod: -4.8%

What do the screens show for `CN(C)c1ccc(/C=C2\C(=N)N3N=C(CC(=O)N4CCCCC4)SC3=NC2=O)cc1`?
Sfp PPTase inh: -8.3%; D2 agonist: -3.6; PINK1 modulator: 2.9%; gsp ag: -7.0%[15.4 µM]; gsp antagonist: -27.3%

How did COc1ccc(NC(=O)COC(=O)CC2Sc3ccccc3NC2=O)cc1 (centres undefined) do in these assays?
D2 agonist: -1.7; PINK1 modulator: -0.5%; ClpP mod: -0.7%; gsp ag: -6.1%[15.4 µM]; gsp antagonist: -3.2%

How did CCOc1cc(CO)ccc1OCC(=O)N1CCCCC1 do in these assays?
Sfp PPTase inh: 5.2%; D2 agonist: -0.5; PINK1 modulator: -2.9%; Menin MLL FP FL: -1.2; ClpP mod: 0.8%; gsp ag: -25.8%; gsp antagonist: 2.5%

Results for O=C(Nc1cccc2ccccc12)c1ccccc1NS(=O)(=O)c1cccc2cccnc12 ?
Sfp PPTase inh: 9.8%; D2 agonist: -2.7; PINK1 modulator: 0.6%; Menin MLL FP FL: 2.3; ClpP mod: -5.0%; gsp ag: -38.8%; gsp antagonist: 10.0%

What do the screens show for `CCC(=O)Nc1ccc2oc(-c3cccnc3)nc2c1`?
Sfp PPTase inh: 15.7%; D2 agonist: 1.4; PINK1 modulator: -1.3%; Menin MLL FP FL: -1.8; gsp ag: 28.5%[15.4 µM]; gsp antagonist: 5.0%

What do the screens show for `O=C(N/C(=C/c1ccc(Br)cc1)C(=O)N1CCOCC1)c1cccs1`?
Sfp PPTase inh: 4.7%; D2 agonist: -0.3; PINK1 modulator: 0.6%; Menin MLL FP FL: 8.3; gsp ag: 5.8%[15.4 µM]; gsp antagonist: 2.9%

What do the screens show for `CCOC(=O)/C=C/C(=O)Nc1ccc(S(=O)(=O)N(C)c2ccccc2)cc1`?
Sfp PPTase inh: 14.4%; D2 agonist: 5.9; PINK1 modulator: 4.2%; Menin MLL FP FL: 5.1; gsp ag: -9.9%[15.4 µM]; gsp antagonist: -9.0%

What do the screens show for `Cc1noc(C)c1C(=O)OC(C)C(=O)c1ccc(C(C)(C)C)cc1` (centres undefined)?
D2 agonist: -3.6; PINK1 modulator: -0.1%; ClpP mod: 0.3%; gsp ag: -37.1%

Results for COCC(C)OC(=O)c1c(N)n(-c2ccc(OC)c(OC)c2)c2nc3ccccc3nc12 (centres undefined) ?
Sfp PPTase inh: 19.7%; D2 agonist: -2.2; PINK1 modulator: -0.2%; Menin MLL FP FL: 2.2; ClpP mod: -10.9%; gsp ag: 5.1%; gsp antagonist: 7.2%

How did CC[C@@]1(C(=O)OC)N[C@H](CN(C)S(=O)(=O)c2ccc(F)cc2)[C@@H]2C(=O)N(C)C(=O)[C@@H]21 do in these assays?
D2 agonist: -1.6; PINK1 modulator: -0.2%; ClpP mod: -0.8%; gsp antagonist: 5.9%

What do the screens show for `O=C(Cn1nc(-c2ccccc2)c2ccccc2c1=O)Nc1ccc(O)cc1`?
Sfp PPTase inh: 0.5%; D2 agonist: -4.2; PINK1 modulator: -0.3%; Menin MLL FP FL: -1.6; ClpP mod: 0.3%; gsp ag: -8.8%; gsp antagonist: -2.1%
